Assay outcomes (PubChem)
NS1 inh: inhibitors of influenza NS1 protein function; S. cerevisiae slowed by influenza A NS1, growth recovery by OD600; Potency, µM (series often up to 46.1 µM), inactives show top-dose activity, positive = more growth; 270,000 compounds, 0.4% hits; AID 2326; active means well fitted rising curve with a large enough effect; inconclusive means small, poorly fitted or top-dose-only effect; inactive means no such curve, though single readings can be large or run the other way; further: nearly all actives have a fitted effect of over 50% in size
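In this qHTS, NS1 from influenza A is expressed in budding yeast, where it slows growth. Cells are switched from glucose to 2% galactose medium (pH 6.0, -URA), treated with compound, and growth recovery is read at OD600.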
Lassa entry inh: blocks Lassa virus binding to or entry into cells. Lassa virus pseudotype entry inhibition, cell reporter; control for the full effect not named in the record. Potency, µM (doses to about 37.9 µM), for inactives: top-dose activity change, negative = inhibition, most hits filed as inhibitors. 300,000 compounds, 1.2% hits. AID 540256; active means well fitted inhibition curve with a large enough effect; inconclusive means small, poorly fitted or top-dose-only effect, or effect the other way; inactive means flat fitted curve, though single readings scatter; tested in HEK293 cells; further: on the % scale 0 is the no-effect control and ±100 the full control effect; nearly all actives have a fitted effect of over 50% in size; luciferase read-out
Cruzain noTriton: cruzain (T. cruzi) inhibition without detergent; Potency, µM, for the others: max response, negative = inhibition, hits mostly inhibitors; purified cruzain, Z-FR-AMC fluorescence, no detergent; 200,000 compounds, 2.3% hits;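 further: plate controls were enzyme without inhibitor for no effect and buffer without enzyme for full effect; nearly all actives have a fitted effect of over 40% in size; top concentration of the series not given in the record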
Target sequence (P25779 123-467 limits assumed): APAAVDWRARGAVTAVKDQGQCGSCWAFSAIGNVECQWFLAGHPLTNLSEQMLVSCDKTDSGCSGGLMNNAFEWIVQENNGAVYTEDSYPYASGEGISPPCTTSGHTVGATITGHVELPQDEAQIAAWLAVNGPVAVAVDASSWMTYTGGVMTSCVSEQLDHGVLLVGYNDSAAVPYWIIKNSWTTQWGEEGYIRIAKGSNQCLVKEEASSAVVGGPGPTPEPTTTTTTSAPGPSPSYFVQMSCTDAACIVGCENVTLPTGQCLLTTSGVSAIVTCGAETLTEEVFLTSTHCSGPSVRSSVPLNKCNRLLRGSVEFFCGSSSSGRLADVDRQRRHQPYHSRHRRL
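Detergent-free condition (0.00005% Triton X-100) in acetate buffer pH 5.5 with DTT. 1.5 nM enzyme and compound were pre-mixed 15 min, then 2 uM Z-FR-AMC substrate added; reaction progress from fluorescence change between first and third reads (60 s).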
Marburg entry inh: blocks Marburg virus binding to or entry into cells; Potency, µM (series often up to 37.8 µM), inactives show at the highest dose activity change, negative = inhibition, actives largely listed as inhibitors; Marburg virus pseudotyped entry inhibition, cell reporter; control for the full effect not named in the record; about a third of the inactives were read at about 46 µM; AID 540276; 300,000 compounds, 1.8% hits; active = well fitted inhibition curve with a large enough effect; inconclusive = small, poorly fitted or top-dose-only effect, or effect the other way; inactive = flat fitted curve, though single readings scatter; tested in HEK293 cells; about a fifth of its hits are not listed in these tables; further: on the % scale 0 is the no-effect control and ±100 the full control effect; luciferase read-out
SARS PLpro yeast: SARS-CoV PLP inhibition in yeast; S. cerevisiae expressing SARS-CoV PLpro, growth rescue; control for the full effect not named in the record; Potency, µM (series often up to 32.9 µM), without a hit: top-dose activity, positive = growth rescue; 330,000 compounds, 0.19% hits; AID 485353; active means well fitted rising curve with a large enough effect; inconclusive means small, poorly fitted or top-dose-only effect; inactive means no such curve, though single readings can be large or run the other way; further: 0% is about no effect; nearly all actives have a fitted effect of over 55% in size; growth read by luminescence after 48 h
RE007 growth inh: less growth of the S. pombe RE007 Vpr strain | S. pombe RE007 Vpr strain, BacTiter-Glo ATP luminescence, 24 h; control for the full effect not named in the record | Potency, µM (top dose mostly 92.2 µM), for inactives: top-dose activity change, negative = less growth | 360,000 compounds, 0.21% hits | AID 651644; active = well fitted falling curve with a large enough effect; inconclusive = small, poorly fitted or top-dose-only effect; inactive = no such curve, though single readings can be large or run the other way;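 further: on the % scale 0 is the no-effect control and ±100 the full control effect; nearly all actives have a fitted effect of over 50% in size; the assay follows cell death caused by Vpr and the record does not say whether a fall means rescue or toxicity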
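Fission yeast RE007 carrying one integrated HIV-1 vpr copy, seeded at OD 0.01 in PMG+AL medium with 23 nL pinned compound. Grown 24 h at 30 degrees; viability read by BacTiter-Glo luminescence after 5 min.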
Cruzain Triton: cruzain (T. cruzi) inhibition with detergent. 200,000 compounds, 0.43% hits. Potency, µM, inactives show max response, negative = inhibition, hits mostly inhibitors. AID 1478. purified cruzain, Z-FR-AMC fluorescence, 0.01% Triton;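 further: plate controls were neutral wells for no effect and buffer without enzyme for full effect; nearly all actives have a fitted effect of over 40% in size; top concentration of the series not given in the record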
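Sodium acetate buffer (100 mM, pH 5.5) containing 5 mM DTT and 0.01% Triton X-100 hosted 1.5 nM cruzain and test compound for 15 min at room temperature. Cleavage of 2 uM Z-FR-AMC was then tracked by fluorescence.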
StopGo reporter: lowers the luciferase signal of an FMDV 2A StopGo reporter | human cells with a luciferase reporter of 2A StopGo recoding; control for the full effect not named in the record | 410,000 compounds, 1.2% hits | Potency, µM (titrated, usually from 57.9 µM), inactives show at the highest dose signal change, negative = less light; active = well fitted falling curve with a large enough effect; inconclusive = small, poorly fitted or top-dose-only effect; inactive = no such curve, though single readings can be large or run the other way; tested in HEK293T cells; further: on the % scale 0 is the no-effect control and ±100 the full control effect; nearly all actives have a fitted effect of over 45% in size; luciferase light after 4 h
* marks the source's active call; other numbers are inactive results; [ ] = dose if it differs, or a comment. Unless noted, the call rests on the fitted dose curve; in most records, active means well fitted curve in the direction sought with a large enough effect; inconclusive means small, poorly fitted or top-dose-only effect, or another doubt; inactive means no such curve, though single readings can be large; an effect the other way counts as inactive or inconclusive. Potency means the concentration at half of the fitted maximal effect. This is a random part of the collection, and some 4.7% of all compounds hit somewhere here.

COc1ccc(CNC(=O)c2cc3c(=O)n(Cc4cccnc4)ccc3nc2C)cc1 was read as Lassa entry inh -1%[46.1 µM], Cruzain noTriton 4%, Cruzain Triton -4.1% and StopGo reporter -5%.
Screening CC1(C)N(O)CC(c2cccs2)=[N+]1[O-] returned NS1 inh 8%, Lassa entry inh 14%, Cruzain noTriton 0%, Marburg entry inh 2%, SARS PLpro yeast 1%, RE007 growth inh -7%, Cruzain Triton 7.9% and StopGo reporter 20%.
CN(Cc1ccccc1)c1oc(-c2ccco2)nc1C#N was read as NS1 inh -78%, Lassa entry inh 2%, Cruzain noTriton 4%, Marburg entry inh -3%, SARS PLpro yeast -5%, RE007 growth inh -1%, Cruzain Triton -18% and StopGo reporter 5%.
Cc1ccc(NC(=O)c2ccccc2[N+](=O)[O-])nc1 was read as NS1 inh -10%, Lassa entry inh -20%, Cruzain noTriton 9%, Marburg entry inh -23%, SARS PLpro yeast inconclusive, RE007 growth inh 8%, Cruzain Triton -2.0% and StopGo reporter 14%.
COc1cccc(C(=O)NCCc2csc(-c3cccc(F)c3)n2)c1OC was read as Lassa entry inh -14%[46.1 µM], Cruzain noTriton 24%, Cruzain Triton -8.0% and StopGo reporter -24%.
c1ccc(-n2ncc3c(NCc4ccco4)ncnc32)cc1 was read as NS1 inh -5%, Lassa entry inh inconclusive, Cruzain noTriton -2%, Marburg entry inh inconclusive, SARS PLpro yeast -10%, RE007 growth inh -9%, Cruzain Triton -0.8% and StopGo reporter 40%[activator].
`Cc1ccc(-c2cc(C)nc3ncnn23)cc1` gave NS1 inh -16%, Cruzain noTriton -7%, Marburg entry inh -2%, SARS PLpro yeast 0%, RE007 growth inh -3%, Cruzain Triton 4.1% and StopGo reporter 8%.
For Cc1cccc(N2CN(Cc3cccnc3)CNC2=S)c1C the results were NS1 inh 10%, Lassa entry inh 11%, Cruzain noTriton -7%, Marburg entry inh 3%, SARS PLpro yeast -14%, RE007 growth inh 5%, Cruzain Triton -0.9% and StopGo reporter -16%.
CCCCC(=O)N/N=C/c1c(O)n(Cc2ccco2)c(=O)[nH]c1=O was read as NS1 inh 2%, Lassa entry inh 0%, Cruzain noTriton -8%, Marburg entry inh inconclusive, SARS PLpro yeast 0%, RE007 growth inh 11%, Cruzain Triton 17% and StopGo reporter -18%.
`C=CCn1c(-c2sc3nc(C)cc(C)c3c2N)n[nH]c1=S` gave NS1 inh 4%, Lassa entry inh -6%[46.1 µM], Marburg entry inh -7%[46.1 µM], SARS PLpro yeast 0%, RE007 growth inh 12% and StopGo reporter 23%.
`O=C(CN1CCCN(Cc2ccc(F)cc2)S1(=O)=O)NC1CCCC1` gave NS1 inh -4%, SARS PLpro yeast 1%, RE007 growth inh -3% and StopGo reporter inconclusive.
Screening COc1ccccc1-n1c(C)nc(=O)c(-c2ccccc2)c1C returned NS1 inh -6%, Lassa entry inh 25%, Cruzain noTriton -3%, Marburg entry inh -4%[46.1 µM], SARS PLpro yeast -4%, RE007 growth inh 17%, Cruzain Triton 9.6% and StopGo reporter 6%.
Cn1c(N)c(C(=O)CSc2nn(-c3ccccc3)c(=S)s2)c(=O)n(C)c1=O was read as Lassa entry inh inconclusive, SARS PLpro yeast -4%, RE007 growth inh -10% and StopGo reporter 25µM*.
For COc1ccc(Br)c(C(=O)N(C)CC(=O)Nc2ccc(N3CCOCC3)cc2)c1 the results were Lassa entry inh -1%, Marburg entry inh 11%, SARS PLpro yeast -2%, RE007 growth inh 4% and StopGo reporter -14%.
`CC1CC(C)CN(CCCNC(=O)c2ccc3nc(N4CCCCC4)sc3c2)C1` (stereo unspecified) gave NS1 inh -3%, SARS PLpro yeast 6%, RE007 growth inh -10% and StopGo reporter 4%.
COc1ccc(S(=O)(=O)N2CCCCCC2)cc1C(=O)N1CCN(c2ccccc2O)CC1 was read as Lassa entry inh -18%, Marburg entry inh inconclusive, SARS PLpro yeast 0%, RE007 growth inh 13% and StopGo reporter -13%.
Screening CC(C)c1ccccc1NC(=S)NN(Cc1ccccc1)c1ccccc1 returned NS1 inh -8%, Lassa entry inh 6%, Cruzain noTriton 4%, Marburg entry inh -20%, SARS PLpro yeast -5%, RE007 growth inh 0%, Cruzain Triton -1.3% and StopGo reporter -16%.
Screening CC(C)C(=O)Nc1nc(-c2ccc([N+](=O)[O-])cc2)cs1 returned NS1 inh 2%, SARS PLpro yeast 1%, RE007 growth inh 18% and StopGo reporter -21%.
`O=C(O)c1ccc(-n2c(-c3cc(-c4ccco4)[nH]n3)n[nH]c2=S)cc1` gave NS1 inh 26%, Lassa entry inh -2%, Cruzain noTriton -22%, Marburg entry inh 3%, SARS PLpro yeast 3%, RE007 growth inh 38%, Cruzain Triton 2.5% and StopGo reporter -21%.
`OCC1(CC2CCCCO2)CCN(C/C=C/c2ccccc2)CC1` (stereo unspecified) gave NS1 inh 6%, Lassa entry inh -18%, Marburg entry inh inconclusive, SARS PLpro yeast 1%, RE007 growth inh -17% and StopGo reporter -12%.
O=C(NC1CCN(CC(=O)N(c2ccccc2)c2ccccc2)CC1)c1ccc([N+](=O)[O-])cc1 was read as NS1 inh 0%, Lassa entry inh -2%, Marburg entry inh -27%[46.1 µM], SARS PLpro yeast 0%, RE007 growth inh -12% and StopGo reporter -12%.
Cc1cccc(OCC(=O)Nc2ccc(C(=O)NCC(C)C)cc2)c1 was read as NS1 inh 2%, Lassa entry inh -1%, Marburg entry inh inconclusive, SARS PLpro yeast 5%, RE007 growth inh 6% and StopGo reporter -13%.
For COc1ccc(CCNC(=O)c2cc3c(-c4ccccc4F)nn(C)c3s2)c(OC)c1 the results were Lassa entry inh -21%[46.1 µM], Cruzain noTriton -20%, Marburg entry inh inconclusive, Cruzain Triton -2.3% and StopGo reporter inconclusive.
For CCOC(=O)c1c(NC(C)=O)sc2c1CCC(C=NCCCN(CC)CC)=C2Sc1ccccc1 the results were Lassa entry inh inconclusive, Marburg entry inh inconclusive, RE007 growth inh -4% and StopGo reporter inconclusive.
`Cc1cc([N+](=O)[O-])ccc1N` gave Lassa entry inh 18%, Cruzain noTriton -12%, Marburg entry inh inconclusive, SARS PLpro yeast -1%, RE007 growth inh -2%, Cruzain Triton 1.6% and StopGo reporter 7%.
`Cc1ccc(NC(=O)COC(=O)Cc2cccs2)c(Br)c1` gave NS1 inh -5%, Lassa entry inh 12%, Marburg entry inh 10%, SARS PLpro yeast -5%, RE007 growth inh -14% and StopGo reporter 3%.
O=C(Nc1ccccc1)O/N=C/c1ccccc1Cl was read as NS1 inh -62%, Lassa entry inh 7%, Cruzain noTriton 8%, Marburg entry inh 4%, SARS PLpro yeast inconclusive, RE007 growth inh -7% and Cruzain Triton 5.1%.
For Cc1c(S(=O)(=O)N2CCN(c3ccc(F)cc3)CC2)c(=O)n(C)c(=O)n1C the results were NS1 inh -3%, Lassa entry inh 10%, Marburg entry inh 3%, SARS PLpro yeast 4%, RE007 growth inh -2% and StopGo reporter -15%.
`CN(C(=O)c1ccc(NC(=O)Cc2cccc(NC(=O)C3CCN(C(=O)C4CCC4)CC3)c2)cc1)C1CCCC1` gave Marburg entry inh 1%, SARS PLpro yeast 4%, RE007 growth inh -8% and StopGo reporter -16%.
For COCCCNC(=O)CCc1nc(-c2ccccc2Cl)no1 the results were NS1 inh -5%, Lassa entry inh -3%, Cruzain noTriton 6%, Marburg entry inh 21%, SARS PLpro yeast 5%, RE007 growth inh 1%, Cruzain Triton 1.6% and StopGo reporter -7%.
Screening Cn1c(=O)c2c(nc(NCc3cccnc3)n2Cc2ccc(Cl)cc2)n(C)c1=O returned NS1 inh 0%, Lassa entry inh inconclusive, Cruzain noTriton 3%, Marburg entry inh inconclusive, SARS PLpro yeast -1%, RE007 growth inh 1%, Cruzain Triton 2.8% and StopGo reporter -26%.
For CCN(c1ccccc1)c1ncnc2c1cnn2-c1ccc(OC)cc1 the results were Lassa entry inh inconclusive, Cruzain noTriton 2%, Cruzain Triton -9.2% and StopGo reporter -3%.
`Cc1nn(Cc2noc(C(=O)NC(C)c3ccccc3)n2)c(C)c1Br` (stereo unspecified) gave Lassa entry inh 4%[46.1 µM], Cruzain noTriton -15%, Marburg entry inh inconclusive, Cruzain Triton -2.5% and StopGo reporter -10%.
`N/C(=N\NC(=O)Nc1ccc(Cl)cc1)c1ccccn1` gave NS1 inh 0%, Lassa entry inh 11%, Marburg entry inh 26%, SARS PLpro yeast 0%, RE007 growth inh 1% and StopGo reporter 65%[activator].
Screening CC(NC(=O)Cc1ccc(S(=O)(=O)N2CCOCC2)s1)c1ccc(Br)cc1 (stereo unspecified) returned Lassa entry inh 10%, Marburg entry inh inconclusive, RE007 growth inh -11% and StopGo reporter 0%.
For COc1ccc(C(=O)Nc2cc(C(C)C)c(O)c(S(=O)(=O)c3ccc(Cl)cc3)c2C)cc1 the results were Lassa entry inh 8%[46.1 µM], Cruzain noTriton inconclusive, Marburg entry inh inconclusive, Cruzain Triton -1.9% and StopGo reporter 52%[activator].
`COC(=O)c1cc(-c2ccc(C)o2)nc2ccccc12` gave NS1 inh -43%, Lassa entry inh -6%, Cruzain noTriton -6%, Marburg entry inh inconclusive, SARS PLpro yeast -43%, RE007 growth inh 11µM*, Cruzain Triton -8.9% and StopGo reporter -1%.
For CC(=O)Nc1ccc(NC(=O)CCN2C(=O)c3ccccc3C2=O)cc1 the results were NS1 inh 20%, SARS PLpro yeast 3%, RE007 growth inh -11% and StopGo reporter -2%.

By substructure: the entries above with an aryl thioether with sulfur outside any ring
Cn1c(N)c(C(=O)CSc2nn(-c3ccccc3)c(=S)s2)c(=O)n(C)c1=O was read as Lassa entry inh inconclusive, SARS PLpro yeast -4%, RE007 growth inh -10% and StopGo reporter 25µM*.
For CCOC(=O)c1c(NC(C)=O)sc2c1CCC(C=NCCCN(CC)CC)=C2Sc1ccccc1 the results were Lassa entry inh inconclusive, Marburg entry inh inconclusive, RE007 growth inh -4% and StopGo reporter inconclusive.
